Autofluor counter: compound fluorescence in toxin protease inhibitor counterscreen; compound autofluorescence counterscreen, microsphere flow cytometry; stronger effect = higher value; fluorescence intensity (test concentration not listed); 3.1% of 360,000 active; AID 624483;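 active = at least 3 SD above the mean of all compounds, about 16000 in these data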;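 also: 100 nL of 1 mM stock went into each well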
ugtP null kill: growth inhibition of ugtP-null S. aureus, primary screen, RN4220 ugtP deletion, OD600; 16 h; some inactives read as strong as hits; growth inhibition, % (no concentration beside the values); 0.54% of 330,000 active;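 active = z-score under -3 and OD600 up to 0.15 on both plates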;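 also: plate controls were untreated wells for no effect and antibiotic for full effect; wells of about 80 µL received 100 nL stock; the first replicate is given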
Sa RN4220 lethal: growth inhibition of S. aureus RN4220, primary screen, OD600. 16 h. 0.33% of 330,000 active. inhibition, % (no concentration beside the values). AID 1259311, 2017;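 active = z-score of -3 or lower and OD600 up to 0.18 on both plates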;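 also: plate controls were untreated cells for no effect and reference antibiotic for full effect; stock transfer was 100 nL into about 80 µL; one replicate is shown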
PrP 5UTR inh: inhibition of PrP 5' UTR reporter expression; 0.35% of 340,000 active; AID 488862, 2010; cell-based PrP 5' UTR mRNA reporter, plate reader; inhibition, % (concentration not given with the values);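 active = every replicate at 50% or more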;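 also: 0 = median of the neutral control wells; tested in H4 reporter cells; numbers are from one replicate; inactives centre near -14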
BJeLR lethal: MLPCN primary cell-based screen for lethality selective to Ras in HRASV12 cells; BJeLR (HRASV12) viability, CellTiter-Glo ATP luminescence, 48 h; reference of the scale not given here; inhibition, % (concentration not given with the values); 0.17% of 300,000 active;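 active = replicate mean above 50%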;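 also: 50 nL library stock added to about 25 µL; numbers are from one replicate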
Mtb hypoxia rep: PubChem AID 1159583; fluorescence inhibition, % (concentration not given with the values); M. tuberculosis hypoxia-regulated fluorescent reporter, fluorescence; 0.1% of 300,000 active;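 active = 35 to 45% if threefold the growth effect, above 45% if 1.5-fold the growth effect; inactive = the rest, general growth blockers included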;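 also: wells of about 50 µL received 100 nL stock; 0% = vehicle wells and 100% = reference inhibitor wells; whole bacteria with a GFP reporter of the hypoxia response; strong numbers were not always called active; many hits fall short of the cut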
Mtb hypoxia rep growth: further read-out of Mtb hypoxia rep, marked with its call; growth inhibition, %; measured here: M. tuberculosis growth (absorbance);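 0% = vehicle and 100% = reference antibiotic; read after six days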
The depositor's hits bear a star; nt = no result given. The order is random. About 3.9% of those tested had a hit in this group.

Compound | Autofluor counter | ugtP null kill | Sa RN4220 lethal | PrP 5UTR inh | BJeLR lethal | Mtb hypoxia rep | Mtb hypoxia rep growth
Fc1cccc(CNCCc2c[nH]c3ccccc23)c1 | 4093 | 5 | 4.2 | -18 | -13 | 7 | 8
Cc1ccc(CNC(=O)C(C)C2Sc3ccccc3NC2=O)cc1 (stereo unspecified) | 4174 | 4 | 4.3 | -10 | -6 | 12 | 5
CC1(C)CC(=O)C(N=Nc2cc(Cl)c(Cl)c(Cl)c2)=C(O)C1 | 3454 | 1 | 3.2 | -25 | -1 | nt | nt
CN1CCC(N2CCCC(C(=O)O)C2)CC1 (stereo unspecified) | 9775 | 7 | 5.4 | -20 | 1 | 6 | 10
CCCc1cc(=O)n2[nH]c(C)c(-c3ccccc3)c2n1 | 2802 | -7 | -27 | 13 | 0 | 3 | 10
O=C(COc1ccc(Cl)cc1)N1CCN(C(=O)c2cccs2)CC1 | 3182 | -6 | -2.2 | 5 | -17 | -4 | 2
O=C(Nc1cccc(Cl)c1)c1ccc2c(c1)SC1=NS(=O)(=O)CCN12 | 2461 | 2 | -1.6 | -5 | nt | -10 | -3
COc1ccc(NC(=O)CN2C(=O)C(c3ccccc3)=NC23CCCCCC3)cc1OC | 2486 | 3 | 7.5 | 6 | -6 | 3 | 5
CC(=O)NS(=O)(=O)c1ccc(NC(=O)C2C3C=CC(C3)C2C(=O)O)cc1 (stereo unspecified) | 2509 | 9 | 2.2 | -28 | nt | 10 | 6
COc1cc(C=NNC(=O)C(=O)NCc2ccco2)cc(Cl)c1O | nt | -2 | 4.5 | nt | nt | 12 | 4
CCC(C(=O)OC)n1cnc2scc(-c3ccc(C)cc3)c2c1=O (stereo unspecified) | 4389 | 6 | 6.1 | -15 | -7 | 5 | 10
COc1ccc(OCC(O)CNS(=O)(=O)c2ccc(C)cc2)cc1 (stereo unspecified) | 4547 | 10 | 2.9 | nt | 0 | 9 | -1
Cn1c(=O)[nH]c(=O)c2c1nc(N1CCC(Cc3ccccc3)CC1)n2Cc1ccccc1 | 5853 | 8 | 2.8 | -22 | 3 | -4 | 7
COc1ccc(C2CC(c3ccc4ccccc4c3)=NN2C(=O)CNC2CCCCC2)cc1 (stereo unspecified) | 4126 | -27 | 8.2 | -15 | 4 | 13 | 17
CSCCC(=O)N1C(C)CCCC1C(=O)O (stereo unspecified) | 2965 | 2 | 4.6 | -13 | -7 | 7 | 4
CCN1CCN(c2ccc(NC(=O)c3cccc(F)c3)cc2Cl)CC1 | 4498 | 1 | 6.2 | -61 | 8 | 2 | 9
O=C(NCc1ccc(Cl)cc1)c1ccc(CNc2c(N3CCOCC3)c(=O)c2=O)cc1 | 4657 | -12 | -3.5 | -8 | 2 | -6 | 11
COc1ccc(C(CC(=O)N2CCCC(C)C2)c2c(OC)cc(OC)c3c(-c4ccccc4)cc(=O)oc23)cc1 (stereo unspecified) | 3349 | 20 | 20 | -8 | -5 | -1 | 5
S=c1[nH]nc(-c2ccc(Cl)cc2)n1-c1ccc2c(c1)OCCO2 | 2530 | 11 | -1.8 | -4 | -2 | 2 | -3
CC(C)c1ccc(NC2CCCN(C(=O)c3cc(C(C)C)nc(N)n3)C2)cc1 (stereo unspecified) | 5137 | 8 | 2.4 | -29 | 5 | -3 | -10
CC(C)(C)c1cc(N)on1 | 2032 | 1 | 3.8 | -15 | -6 | 11 | -2
Cc1ccc(S(=O)(=O)N(CC(=O)NC2CCCC2)c2cccc(C)c2)cc1 | 8610 | 1 | 2.4 | -9 | 12 | 8 | 10
COCCNC(=O)C(c1ccc(C)o1)N(Cc1cccs1)C(=O)c1snc(C(N)=O)c1N (stereo unspecified) | 8883 | -4 | 2.6 | -8 | -1 | -2 | 5
COCCn1c(SCC(=O)N2CCOCC2)nc2ccccc2c1=O | 5798 | 2 | 2.4 | -25 | -12 | -8 | -1
CC(=O)c1cn(CCC(C)C)c(=O)[nH]c1=O | 2170 | 3 | 4.5 | -8 | -9 | 24 | 15
CS(=O)(=O)Nc1ccccc1C(=O)Nc1ccccc1C(=O)N1CCCC1 | 5500 | 2 | -1.2 | -16 | 5 | 2 | 2
COC(CNC(=O)c1ccc2c(c1)ncn2-c1ccc(F)c(F)c1)OC | 2503 | 13 | 3.0 | -25 | 4 | -2 | -1
CC1(C)C(=O)NCCN1C(=O)CCC(=O)O | 5935 | 4 | 4.9 | -4 | -2 | 8 | 3
CCc1nnc(NS(=O)(=O)c2ccc(N3C(=O)c4ccc(C(=O)O)cc4C3=O)cc2)s1 | 2231 | 11 | -1.6 | -15 | -3 | 16 | 13
CC(C)(C)c1ccc(/C=C/C(=O)Nc2ccncc2)cc1 | 2658 | -1 | -0.3 | -46 | 7 | 7 | 13
COc1ccc(CCC(C)NCc2cc(OC)cc(OC)c2)cc1 (stereo unspecified) | 3786 | 0 | -1.1 | -14 | 0 | 10 | 11
O=C(COc1ccccc1[N+](=O)[O-])Nc1ccccc1N1CCCCC1 | 4906 | 10 | 5.1 | -32 | -3 | 7 | -6
CN(CC(=O)Nc1cccc(S(=O)(=O)N(C)C)c1)Cc1ccccc1 | 5734 | 6 | 2.4 | -7 | -11 | 6 | 19
O=C(Nc1cccc(F)c1)c1ccc(Cn2cc([N+](=O)[O-])cn2)o1 | 4403 | 4 | 1.7 | 8 | 6 | 18 | 7
Cc1ccc(C(=O)C2=C(O)C(=O)N(CCCN(C)C)C23C(=O)N(C)c2ccccc23)o1 (stereo unspecified) | 10702 | -1 | 5.4 | -5 | 2 | 8 | 8
Cc1ccc(NC(=S)N/N=C/c2cccn2Cc2ccccc2F)cc1 | 6912 | nt | nt | -7 | -3 | nt | nt
Cc1cccc(NC(=O)CSc2nc3c(c(=O)[nH]2)CCC3)c1C | 1958 | -10 | 2.8 | -7 | -3 | 10 | 4
O=[N+]([O-])c1ccc(CSc2nnc(-c3cnccn3)o2)cc1 | 10588 | 2 | 0.1 | -13 | 9 | 17 | 11
O=S(=O)(CCSc1ccccn1)c1nc2ccccc2s1 | 23137* | 4 | 2.1 | -21 | -14 | -9 | 13
O=c1cc(N2CCC(Cc3ccccc3)CC2)[nH]c(=O)n1C1CCCCC1 | 2955 | -4 | -7.0 | -14 | 0 | 7 | 9
O=C(/C=C/c1c(F)cccc1Cl)Nc1nn[nH]n1 | 4449 | 1 | 4.0 | -19 | -10 | 3 | 2
CON=Cc1cc(C(=O)c2ccc(Cl)cc2Cl)cn1C | nt | -4 | -2.3 | nt | nt | 8 | 3
CCOCCCNC(=O)C1CCCCN1S(=O)(=O)c1ccc(F)cc1 (stereo unspecified) | 6124 | 3 | 1.1 | -12 | 7 | -3 | 0
COc1ccc2c(CC(=O)OCC(=O)c3ccccc3OC)coc2c1 | 2331 | 8 | 13 | -23 | 6 | nt | nt
CCOc1cc(N2CCOCC2)c(OCC)cc1NC(=O)CSc1nccc(C)n1 | 2006 | 5 | -0.9 | -19 | -4 | -5 | -1
Cc1onc(-c2ccccc2Cl)c1C(=O)OCC(=O)c1ccc2c(c1)OCCO2 | 7953 | 4 | 1.0 | -48 | 6 | 15 | 8
CCOC(=O)COc1nc(-c2ccco2)cc(-c2ccco2)c1C#N | nt | 7 | 2.6 | -26 | -9 | 8 | 5
Cc1ccc(C)c(CN2CCN(c3ncccn3)CC2)c1 | 3152 | 1 | -0.3 | -23 | 2 | -1 | -2
Cc1c(C(=O)/C=C/N(C)C)nnn1-c1ccc(Cl)c(Cl)c1 | 4171 | 6 | 5.3 | -39 | 4 | 2 | 1
CNCCOCC(O)CSc1ccccc1 (stereo unspecified) | 2935 | -7 | 1.2 | -19 | -6 | -1 | -1

Remaining list, next part:
Compound | Autofluor counter | ugtP null kill | Sa RN4220 lethal | PrP 5UTR inh | BJeLR lethal | Mtb hypoxia rep | Mtb hypoxia rep growth
CCSCCOC(=O)C1=C(C)NC(=O)NC1c1cc(OC)ccc1OC (stereo unspecified) | 3658 | 3 | 0.2 | -23 | -3 | nt | nt
CCc1cc(C(=O)NCC2CCCO2)sc1C (stereo unspecified) | 6605 | 4 | 1.7 | 18 | -9 | nt | nt
CON=C(C(=O)O)c1csc(NN=C(C)C)n1 | nt | 3 | 4.1 | nt | nt | 3 | 5
CC(C)CC1C(C#N)=C(N)Oc2n[nH]c(-c3cccs3)c21 (stereo unspecified) | 9531 | -3 | 4.7 | 7 | -6 | -4 | 8
COc1cc(NC(=S)Nc2ncccc2C)cc(OC)c1OC | 2826 | -6 | -0.2 | -25 | -1 | -2 | -7
CCCC(c1c(C)n(C)n(-c2ccccc2)c1=O)c1c(C)n(C)n(-c2ccccc2)c1=O | 3449 | -1 | 7.6 | -11 | 2 | 3 | 2
COc1ccc(C(=O)N2CCN(C(=O)C3COc4ccccc4O3)CC2)cc1OC (stereo unspecified) | 6506 | -1 | 0.4 | -2 | 5 | 6 | -13
Clc1ccc(CSc2nnc3c(n2)[nH]c2ccccc23)cc1 | 3692 | -3 | 1.0 | -14 | -13 | 9 | 4
CN(CC(=O)Nc1ccccc1Cl)C(=O)COC(=O)CN1C(=O)NC2(CCCC2)C1=O | 6290 | -7 | -5.0 | -19 | -1 | -9 | 4
NC(=S)NN=Cc1c[nH]c2ccccc12 | nt | -2 | 6.1 | nt | nt | nt | nt
Cn1c(O)c(C=NC2CCN(Cc3ccccc3)CC2)c(=O)n(C)c1=O | 4616 | 7 | 4.8 | -5 | 1 | 8 | 4
CC(=O)N1CCN(CCN=CC2=C(O)CC(c3cccs3)CC2=O)CC1 (stereo unspecified) | 2396 | -5 | -25 | -5 | 8 | -2 | 2
ClCCN1CCN(c2ccnc3cc(Cl)ccc23)CC1 | 3070 | -2 | 0.9 | 4 | 2 | 3 | 1
COc1ccc(NC(=O)c2cc3cc(C)ccc3n2C)c(OC)c1 | 3312 | 17 | 13 | -26 | -6 | 8 | 9
Cc1ccc(-c2nnc(-c3cccnc3)o2)cc1 | 3110 | 6 | 1.7 | -60 | -5 | 11 | -1
CCN(CC)C(=O)c1cc2cc(Br)ccc2oc1=O | 22173* | -5 | 7.8 | -17 | 6 | 16 | 9
Cc1nc(SCCC(C)C)c([N+](=O)[O-])[nH]1 | 8655 | -4 | 2.4 | -15 | 1 | -8 | 5

Screening data (PubChem BioAssay)
